Assay outcomes: PubChem, ICCB-Longwood Screening Facility, Harvard Medical School
PV pol inh = inhibitors of poliovirus RNA polymerase binding and polymerization; P03300; poliovirus polymerase elongation, fluorescence polarization; stronger effect = lower value; % elongation, % (compound at 16.7 µg/mL); 0.66% of 150,000 active; AID 588519; in the data active = % elongation below about 90%; also: some results filed as inactive read as strong as hits
Target sequence (P03300 1749-2209 limits assumed): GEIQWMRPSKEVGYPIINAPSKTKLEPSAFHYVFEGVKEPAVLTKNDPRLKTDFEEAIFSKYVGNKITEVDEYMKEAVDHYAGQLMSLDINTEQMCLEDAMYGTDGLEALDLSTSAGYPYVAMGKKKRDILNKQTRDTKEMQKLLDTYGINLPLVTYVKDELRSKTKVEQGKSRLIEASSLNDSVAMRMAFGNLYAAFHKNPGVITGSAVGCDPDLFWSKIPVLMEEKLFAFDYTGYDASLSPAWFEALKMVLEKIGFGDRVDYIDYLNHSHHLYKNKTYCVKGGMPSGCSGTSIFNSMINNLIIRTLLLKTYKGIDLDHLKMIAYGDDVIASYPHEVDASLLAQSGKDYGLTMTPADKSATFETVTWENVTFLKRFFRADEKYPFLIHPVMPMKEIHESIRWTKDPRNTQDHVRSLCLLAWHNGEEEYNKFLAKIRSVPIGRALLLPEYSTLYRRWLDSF
PV pol inh intensity = second read-out of PV pol inh, no call of its own (marks repeat the call); % elongation; measured here: total intensity read-out; formula for this scale not given here;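 total fluorescence in place of polarization; lower means less elongation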
An asterisk follows results filed as active. Some of the compounds tested, so the mix of outcomes need not match the whole.

SMILES | PV pol inh | PV pol inh intensity
CN(C(=O)CSc1nc2ccc(NC(=O)c3cccs3)cc2s1)c1ccccc1 | 107 | 102
CCS(=O)(=O)c1ccccc1C(=O)Nc1ccc(-c2nc3ccccc3s2)cc1 | 109 | 108
COCCCn1c(=O)c2sccc2n2c(CCCC(=O)NC3CCC(C)CC3)nnc12 (stereo not given) | 113 | 110
CCOc1ccc(C(=O)NCCc2sc(-c3ccc(OC)c(OC)c3)nc2C)cc1 | 106 | 99
O=C(COc1ccc(Br)cc1)Nc1ccc(Cl)cc1C(=O)c1ccccc1 | 105 | 112
CCOC(=O)c1c(NC(=O)/C=C/c2ccc(OCC)cc2)sc(C)c1C | 104 | 106
Cc1oc(-c2ccc(Cl)cc2)nc1CSc1nnc(C)n2c1cc1sccc12 | 111 | 106
CCOc1ccccc1NC(=O)N1CC(C)Oc2ccc(Cl)cc21 (stereo not given) | 106 | 112
Cc1cccc(C)c1OCC(=O)NCC1(N(C)C)CCCCC1 | 104 | 107
CCCOc1ccc(C2c3c(oc4ccccc4c3=O)C(=O)N2c2nnc(C(C)C)s2)cc1 (stereo not given) | 108 | 109
COc1cc(NC(=O)CC2C(=O)N(c3cccc(C)c3)C(=O)N2Cc2cccs2)cc(OC)c1 (stereo not given) | 107 | 111
CCOc1ccc(CNC(=O)c2ccc3c(c2)c(C)c(C)n3Cc2ccc(Cl)cc2)cc1 | 98 | 103
Cc1ccc(-n2ncc3c(NCCCn4ccnc4)ncnc32)cc1 | 106 | 113
COc1cccc(NC(=O)Cn2c(=O)n(-c3ccccc3)c(=O)c3c2c2cc(OC)ccc2n3C)c1 | 102 | 98
COc1cccc(-n2ccnc2SCC(=O)Nc2ccc(Cl)c(Cl)c2)c1 | 105 | 104
Cc1cc(C)cc(OCC(=O)NCC(c2ccc(Cl)cc2)N2CCCCC2)c1 (stereo not given) | 113 | 113
Cc1ccccc1OCCSc1nnc(-c2cccs2)o1 | 109 | 95
CCc1ccc2oc(C(=O)Nc3ccccc3C(=O)OC)cc(=O)c2c1 | 115 | 116
CC1CCc2c(sc(NC(=O)c3cc(-c4ccc(F)cc4)on3)c2C(N)=O)C1 (stereo not given) | 107 | 110
COc1cccc(-n2c(SCC(N)=O)nc3c(oc4ccccc43)c2=O)c1 | 103 | 106
CSc1ccc(-c2nc3ncccn3c2Nc2ccc(C)c(C)c2)cc1 | 111 | 111
COc1ccc2c(c1)NC(c1ccc(Cl)cc1)=NC(c1cccs1)=N2 | 109 | 107
CN1C(=O)C2(c3ccccc31)N(c1ccc(F)c(Cl)c1)C(=O)CS2(=O)=O (stereo not given) | 109 | 103
CCOC(=O)Cc1c(C)nc2c(-c3ccc(OC)c(OC)c3)c(C)nn2c1C | 102 | 110
CCOc1ccc(CCNS(=O)(=O)c2c(C)nc3scc(C)n3c2=O)cc1OCC | 108 | 108
CC(C)CCNC(=O)CCCN1C(=O)c2ccccc2Sc2ncccc21 | 105 | 105
CCOC(=O)CSc1nc2ccccc2c(=O)n1-c1ccc(C(=O)NCCOC)cc1 | 107 | 113
CCc1ccc(NC(=O)Cn2c(=O)n(Cc3ccccc3)c(=O)c3oc4ccccc4c32)cc1 | 110 | 112
COc1cc(C2CC(=O)c3c([nH]c(C(=O)OC4CCCC4)c3C)C2)cc(OC)c1OC (stereo not given) | 105 | 106
Cc1nnc2c(N3CCN(c4ccc(F)cc4)CC3)nc3ccc(C(=O)c4ccccc4)cc3n12 | 110 | 101
Cc1ccccc1CNC(=O)Nc1ccc2c(c1)N(C)C(=O)c1ccccc1S2 | 112 | 117
COc1ccc(-c2nc(CCNC(=O)c3cccs3)cs2)cc1 | 99 | 100
Cc1ccc(C)c(N2CCN(CCCNC(=O)c3ccc4nc(C(C)C)oc4c3)CC2)c1 | 107 | 106
CCCC(=O)N(c1ccc2oc(C)c(C(C)=O)c2c1)S(=O)(=O)c1ccc(C)cc1 | 110 | 102
Cc1cc(SCC(=O)NCc2ccccc2)nc(=O)[nH]1 | 111 | 111
Cc1cc(F)ccc1NC(=O)C1CCN(S(=O)(=O)c2ccc3c(c2)CCCC(=O)N3)CC1 | 109 | 114

An excerpt of the results above, as a working copy:
SMILES | PV pol inh | PV pol inh intensity
Cc1ccc(C)c(N2CCN(CCCNC(=O)c3ccc4nc(C(C)C)oc4c3)CC2)c1 | 107 | 106
CCCC(=O)N(c1ccc2oc(C)c(C(C)=O)c2c1)S(=O)(=O)c1ccc(C)cc1 | 110 | 102
Cc1cc(SCC(=O)NCc2ccccc2)nc(=O)[nH]1 | 111 | 111

Additional structures follow.
SMILES | PV pol inh | PV pol inh intensity
COc1ccccc1N1CCN(C(=O)CSc2nc(C)cc(=O)[nH]2)CC1 | 109 | 103
O=C(COc1ccc(Cl)cc1)Nc1ccccc1OCc1cc(=O)n2ccccc2n1 | 103 | 105
O=C(CCSCc1ccccc1F)N1CCN(c2ccc(F)cc2)CC1 | 117 | 115
Cc1cc(C)cc(NC(=O)C(=O)NCCCN2CCOCC2)c1 | 107 | 114
Cc1ccc(NC(=O)NCc2ccc3c(c2)CCN3C(=O)c2ccccc2)c(Cl)c1 | 108 | 112
CC(=O)Nc1nonc1-c1nnc(SCC(=O)Nc2ccc(C)cc2)n1-c1ccccc1 | 110 | 109
COc1ccc(C2=NN(CC(=O)NCCc3ccc(OC)c(OC)c3)C(=O)CC2)cc1 | 105 | 104
CCCN(C(=O)c1coc(=O)c2ccccc12)c1ccccc1C | 98 | 103
CCOC(=O)c1c(C)oc2ncnc(Nc3ccc(OC)c(OC)c3)c12 | 104 | 108
CCc1cccc(NC(=O)c2cc3c(=O)oc4ccc(C)cc4c3s2)c1 | 107 | 106
Cc1nc(-c2ccc(C)c(N3CCN(C(=O)Nc4cccc(Cl)c4C)CC3)c2)no1 | 108 | 103
COC(=O)c1ccccc1NC(=O)Cn1c(=O)n(-c2ccc(Cl)cc2)c(=O)c2c(C)c(C)sc21 | 106 | 111
O=C(CSCc1ccccc1Cl)N1CCN(c2ccc(F)cc2)CC1 | 114 | 117
CC(C)CCOc1ccc(C(=O)NCC2OCCc3ccccc32)cc1 (stereo not given) | 108 | 112
CCOC(=O)CSc1nc2ccc(NC(=O)c3ccc(Cl)cc3)cc2s1 | 116 | 119
Cc1ccccc1NC(=O)CSc1nc2c(oc3ccccc32)c(=O)n1Cc1ccco1 | 101 | 106
COc1ccc(N(C(=O)c2cccc(C)c2)S(=O)(=O)c2ccc3c(c2)n(C)c(=O)n3C)cc1 | 105 | 110
O=C(COCc1cc(-c2cccs2)on1)N1CCN(c2ccccc2)CC1 | 102 | 106
Cc1ccc(-c2nc3c(C)cccn3c2Nc2ccccc2C)s1 | 105 | 121
Cc1ccc(NC(=O)C(=O)NCCc2sc(-c3ccc(Cl)cc3)nc2C)cc1C | 107 | 102
Cc1ccc(Cl)cc1Nc1nn2c(=O)c3ccc(C(=O)NC(C)c4ccccc4)cc3nc2s1 (stereo not given) | 113 | 110
Cc1cccc(-n2cc(-c3ccccc3)c3c(NC(C)C)ncnc32)c1 | 108 | 104
CCc1nn(CC(=O)NCCCc2ccccc2)c(=O)c2cc3cc(F)ccc3n12 | 101 | 103
Cc1cccc(Oc2nc3c(c(=O)n(C)c(=O)n3C)n2C)c1C | 109 | 109
CCOc1ccccc1NC(=O)Nc1nnc(N2CCCC(C)C2)s1 (stereo not given) | 104 | 100
O=C(Nc1cc(F)ccc1F)C1CCN(C(=O)c2cnn(-c3ccccc3)c2-n2cccc2)CC1 | 111 | 111
Cc1ccc(C(C)C)c(OCC(=O)Nc2c(C(=O)c3ccc(F)cc3)oc3ccccc23)c1 | 106 | 110
CCCOc1ccc(-c2nonc2NC(=O)c2ccco2)cc1OCCC | 109 | 107
Cc1nnc(SCc2cc(=O)c3ccccc3[nH]2)s1 | 103 | 103
Cc1ccc(C)c(N2CCN(C(=O)NCc3noc4ccc(C)cc34)CC2)c1 | 108 | 101
Cc1ccc2nc(N3CCN(c4ccc(F)cc4)CC3)c3nnnn3c2c1 | 108 | 133
Cc1ccc(Cl)cc1N(C)C(=O)Cn1nc(Cc2cccnc2)c2ccccc2c1=O | 103 | 108
Cc1nc(-c2cccc(F)c2)sc1CCNC(=O)Cc1ccc(F)cc1 | 104 | 102
Cc1cc(C)cc(OCC(=O)N(Cc2ccc(C)o2)C2CCS(=O)(=O)C2)c1 (stereo not given) | 112 | 107
Cc1cccc(N2CCN(C(=O)c3ccc(NC(=O)c4nsc5ccccc45)cc3)CC2C)c1 (stereo not given) | 102 | 107
Cc1ccc2nc(N(Cc3cccnc3)C(=O)c3cccs3)sc2c1 | 104 | 110
COC(=O)c1c(NC(=O)CCCOc2cccc(C)c2)sc2c1CCC2 | 101 | 102
O=c1[nH]c2ccc(NCc3ccc(-c4ccccc4)o3)cc2[nH]1 | 107 | 111
COc1ccc(N2CCN(c3ccc(-c4nc(-c5ccccc5)no4)cc3[N+](=O)[O-])CC2)cc1 | 104 | 104
Cc1ccc(Nc2cc(C(=O)NCCc3ccccc3)c3ccccc3n2)c(C)c1 | 109 | 107
O=C(NC1CCCC1)c1ccc2c(=O)n(Cc3ccccc3)c(SCc3ccc([N+](=O)[O-])cc3)nc2c1 | 107 | 111
CC(=O)Nc1ccc(S(=O)(=O)NCc2ccc3c(c2)CCN3C(C)=O)cc1 | 124 | 127
CC(C)Oc1ccccc1-c1nc(SCC(=O)c2ccc(F)cc2)n[nH]1 | 101 | 96
COc1ccc(C)cc1NC(=O)C(NS(=O)(=O)c1cccc2nsnc12)c1ccccc1 (stereo not given) | 106 | 107
O=C(Cn1c(SCc2cccc(F)c2)nc2ccncc21)Nc1ccc(Cl)cc1F | 107 | 110
CCCCN(C)C(=O)CSc1nc2ccccc2nc1Cc1ccc(C)cc1 | 109 | 104
Cc1ccc(C(=O)Nc2ccc3nc(N4CCCCC4)cc(C)c3c2)cc1F | 103 | 106
Cc1ccc(-c2cn3c(n2)sc2cc(C(=O)NCCCc4ccccc4)ccc23)cc1 | 111 | 113
COc1ccc(NS(=O)(=O)c2ccc3[nH]c4c(c3c2)CCCC4)cc1Cl | 112 | 105
Cc1ccc2c(c1)N(C(=O)N1CCC(C(=O)NCCc3ccccc3)CC1)CC(C)O2 (stereo not given) | 103 | 98
Cc1ccc(CN2CCc3nc(N4CCN(c5ncccn5)CC4)ncc3C2)cc1 | 96 | 94
Cc1cccc(-c2nc(SCC(=O)N(C)c3ccccc3)c3c(=O)n(C)c(=O)n(C)c3n2)c1 | 108 | 107
Cc1cc(O)c(C(c2ccccc2)N2CCN(c3ccc(F)cc3)CC2)c(=O)n1Cc1ccco1 (stereo not given) | 107 | 110
COc1ccc(Cl)cc1NC(=O)Cn1cc2c(n1)CCC(C)C2 (stereo not given) | 103 | 108
COC(=O)c1c(NC(=O)c2ccc(S(=O)(=O)N3CCCC(C)C3)cc2)sc2c1CCN(C(C)C)C2 (stereo not given) | 107 | 113
COc1ccc(-c2nc3nc(C)cc(C)n3c2Nc2c(C)cccc2C)cc1 | 137 | 167

Structural class, those above with a Cl atom (20)
SMILES | PV pol inh | PV pol inh intensity
O=C(COc1ccc(Br)cc1)Nc1ccc(Cl)cc1C(=O)c1ccccc1 | 105 | 112
Cc1oc(-c2ccc(Cl)cc2)nc1CSc1nnc(C)n2c1cc1sccc12 | 111 | 106
CCOc1ccccc1NC(=O)N1CC(C)Oc2ccc(Cl)cc21 (stereo not given) | 106 | 112
CCOc1ccc(CNC(=O)c2ccc3c(c2)c(C)c(C)n3Cc2ccc(Cl)cc2)cc1 | 98 | 103
COc1cccc(-n2ccnc2SCC(=O)Nc2ccc(Cl)c(Cl)c2)c1 | 105 | 104
Cc1cc(C)cc(OCC(=O)NCC(c2ccc(Cl)cc2)N2CCCCC2)c1 (stereo not given) | 113 | 113
COc1ccc2c(c1)NC(c1ccc(Cl)cc1)=NC(c1cccs1)=N2 | 109 | 107
CN1C(=O)C2(c3ccccc31)N(c1ccc(F)c(Cl)c1)C(=O)CS2(=O)=O (stereo not given) | 109 | 103
O=C(COc1ccc(Cl)cc1)Nc1ccccc1OCc1cc(=O)n2ccccc2n1 | 103 | 105
Cc1ccc(NC(=O)NCc2ccc3c(c2)CCN3C(=O)c2ccccc2)c(Cl)c1 | 108 | 112
Cc1nc(-c2ccc(C)c(N3CCN(C(=O)Nc4cccc(Cl)c4C)CC3)c2)no1 | 108 | 103
COC(=O)c1ccccc1NC(=O)Cn1c(=O)n(-c2ccc(Cl)cc2)c(=O)c2c(C)c(C)sc21 | 106 | 111
O=C(CSCc1ccccc1Cl)N1CCN(c2ccc(F)cc2)CC1 | 114 | 117
CCOC(=O)CSc1nc2ccc(NC(=O)c3ccc(Cl)cc3)cc2s1 | 116 | 119
Cc1ccc(NC(=O)C(=O)NCCc2sc(-c3ccc(Cl)cc3)nc2C)cc1C | 107 | 102
Cc1ccc(Cl)cc1Nc1nn2c(=O)c3ccc(C(=O)NC(C)c4ccccc4)cc3nc2s1 (stereo not given) | 113 | 110
Cc1ccc(Cl)cc1N(C)C(=O)Cn1nc(Cc2cccnc2)c2ccccc2c1=O | 103 | 108
O=C(Cn1c(SCc2cccc(F)c2)nc2ccncc21)Nc1ccc(Cl)cc1F | 107 | 110
COc1ccc(NS(=O)(=O)c2ccc3[nH]c4c(c3c2)CCCC4)cc1Cl | 112 | 105
COc1ccc(Cl)cc1NC(=O)Cn1cc2c(n1)CCC(C)C2 (stereo not given) | 103 | 108
